Assay outcomes (PubChem)
NPYLR7 ag = activates Aedes aegypti NPYLR7 receptor. HEK293T NPYLR7/Galpha15, GCaMP6s calcium fluorescence. AID 1259423. activation, % at 10 µM. 270,000 tested, 0.15% active; in the data active = activation above about 40%;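 also: 0% = vehicle and 100% = reference agonist at the receptor; some compounds past the cut are filed as inactive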
NPYLR7 ag max-min = second read-out of NPYLR7 ag, no call of its own (marks repeat the call); activation, %; measured here: Max-Min RFU normalised activation; some inactives read as strong as hits;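 span of the calcium signal over five minutes; 0% = vehicle and 100% = native peptide agonist; compound fluorescence can raise it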
Numbers without * were called inactive; & = joins results of further samples. A portion of the library; count on the stated rates, not on these rows.

SMILES | NPYLR7 ag | NPYLR7 ag max-min
Cc1ccccc1C(=O)N1CCC2(CC1)OCC(C(=O)NCC1CCCO1)N2C(=O)c1cccc(F)c1 (stereo not given) | 2 | 13
Cc1cc(C(=O)N/N=C\c2ccc(O)cc2)c2ccccc2n1 | 12 | 18
COc1ccc(-c2c[n+]3c4n2CCCCC4=C(c2ccccc2)C3)cc1 | 1 | 31
Cc1cc(CNC(=O)c2cccnn2)c2[nH]c(C)c(C)c2c1 | 7 | 3
O=C(CCc1nnc(-c2ccsc2)o1)N1CCCC1c1nc2ccccc2s1 (stereo not given) | 2&-1 | -1&-2
CCOC(=O)C1(Cc2cccc(OC)c2)CCCN(Cc2ccccc2O)C1 (stereo not given) | 4 | 19
CN(Cc1n[nH]c(=O)[nH]1)Cc1cn(Cc2ccccc2)nc1-c1cc2ccccc2o1 | 6 | 2
Cc1cccc2nc(CNC(=O)Cn3ccccc3=O)n(C)c12 | -7 | -6
Cc1ccc(C)c(CSc2nc(=O)n3cc(C)ccc3n2)c1 | -1 | 1
O=C(O)c1nsc(Cl)c1Cl | 0 | 6
CC1(C)Cc2cc(CNC(=O)c3cn4c(n3)CNCC4)ccc2O1 | 5 | 1
CCC(NC(=O)CCCc1ccc(C)s1)c1n[nH]c(C)n1 (stereo not given) | 0 | 11
COc1ccc(Cl)cc1CN(C)Cn1nc(C(C)(C)C)ccc1=O | -1 | -7
CCn1c(CN2CCNC(C(=O)NCc3cccnc3)C2)nc2ccccc21 (stereo not given) | 17 | 2
Cc1cccc(C)c1OCC(N)C(C)C (stereo not given) | 4 | -30
Cc1cnc(SCC2CCCO2)nc1C1CCCN(C(=O)Cc2ccc3c(c2)OCO3)C1 (stereo not given) | 8 | 6
O=C(Cc1cccc(Cl)c1)N1CCOC(COCc2c(Cl)cccc2Cl)C1 (stereo not given) | -5 | -10
CC(C)(C)OC(=O)N1CC(=O)N(Cc2cccc(F)c2)CC(O)C1 (stereo not given) | 8 | 23
COc1ccc(N2C(=O)CSC2c2ccc(OC(F)F)cc2)c(OC)c1 (stereo not given) | -8 | -16
COc1cc(=O)n(-c2ccccc2C)nc1C(=O)Nc1ccc(C)cc1C | 17 | 15
Cn1nnc2c(NCCC3=CCCCC3)ncnc21 | 9 | 5
Cc1nc(-c2ccc(Cn3cc4ncccc4c3O)cc2)no1 | 12 | 3
CN1C[C@H](NC(=O)Cc2ccc3c(c2)NC(=O)CO3)C[C@H]1CO | -3 | -2
CC(C)Cc1ccc(S(=O)(=O)Nc2ccccc2-c2nncn2C)cc1 | 7 | 6
CC(C)(C)c1cc(NC(=O)COc2cc(Cl)ccc2C(N)=O)on1 | 2 | -1

Remaining list, next part:
SMILES | NPYLR7 ag | NPYLR7 ag max-min
Cn1c(=O)c(C(=O)N2C[C@@H]3[C@@H]4CC[C@@H](C4)[C@@H]3C2)nc2ccccc21 | 6 | 5
O=C(NCCN1CCOCC1)c1nn2c(C(F)(F)F)cc(-c3cccs3)nc2c1Cl | -11 | -17
S=C1Nc2cccc3cccc(c23)N1 | 2 | -1
CCCCNC(=O)N1CCN(c2cc(Cl)nc(SCC(=O)Nc3ccccc3F)n2)CC1C (stereo not given) | 5 | 8
CN1CCN(C2=Cc3ccccc3Oc3ccc(Cl)cc32)CC1 | 1 | -9
COc1ccc(C(C)NC(=O)C2CCN(CCCc3ccccc3)CC2)cc1OC (stereo not given) | 2 | 1
Cc1ccc(CN(CCc2ccccc2)C(=O)CN(CCN2CCCCC2)C(=O)c2ccc(Cl)c(Cl)c2)o1 | -3 | 1
O=C(NCc1cc(-c2ccc(F)cc2F)on1)C1CC1 | 2 | 0
C=CCNC(=O)NCC1CC(=O)N(CCc2ccccc2)C1 (stereo not given) | 8 | 7
COc1cccc(Cc2nsc(N3CCCN(C(=O)Nc4cccc(F)c4)CC3)n2)c1 | -1 | 6
CCN1CCc2c(sc(NC(=O)CN3C(=O)CCC3=O)c2-c2nc3ccccc3s2)C1 | 24 | 22
O=C1/C(=C/c2cc3c(cc2[N+](=O)[O-])OCO3)SC(=Nc2ccccc2)N1c1ccccc1 | 2 | -4
Cc1ccc(C(=O)CSc2nnc(NC(=O)c3cccc4ccccc34)s2)cc1 | -3 | 1
CN(C)C(=O)c1ccc(N2CCC(NCCCn3nnc4ccccc43)CC2)cc1 | 6 | 4
CCC(C)N(Cc1ccc(OS(=O)(=O)c2cccc(C(F)(F)F)c2)cc1)C(=O)c1ccc(Cl)c(Cl)c1 (stereo not given) | -11 | -14
COc1ccc(-n2c(SCC(=O)Nc3cc(C)on3)nc3c(c2=O)SCC3)cc1 | 14 | 14
Cc1ccc(C=c2sc(=C(C#N)C(=O)C(C)(C)C)n(CCCN3CCOCC3)c2=O)s1 | 18 | 13
O=C(NC1CCN(c2ccccc2C(=O)N2CCOCC2)CC1)c1ccc(Br)cc1 | 16 | 9
O=C(Nc1nn(Cc2ccc(Oc3ccccc3)cc2)c2ccccc12)c1ccccc1 | 12 | 15
O=C(NCc1ccccn1)C(Cc1ccccc1)NC(=O)C1CC(c2ccc3c(c2)OCO3)=NO1 (stereo not given) | 25 | 28
CCCn1c(C(=O)NC(C)(C)C)cc2c(=O)n(C)c(=O)n(C)c21 | -3 | -4
CCCCCCCCCCCCCC(=O)Nc1ccc(N2CCc3ccccc3C2)c(C(=O)NCCCN2CCOCC2)c1 | 8 | 20
CCOC(=O)CSC1N=C(OC)CC(=O)N1 (stereo not given) | -1 | -6
COc1ccc2cc(C(=O)C3CCCN(C(=O)/C=C/c4ccccn4)C3)ccc2c1 (stereo not given) | 3 | 0
COc1cc(C(=O)Nc2ccnn2Cc2ccc(Cl)cc2)cc(OC)c1OC | 0 | 2

Molecules shown so far that contain a furan ring, fused or not:
SMILES | NPYLR7 ag | NPYLR7 ag max-min
CN(Cc1n[nH]c(=O)[nH]1)Cc1cn(Cc2ccccc2)nc1-c1cc2ccccc2o1 | 6 | 2
Cc1ccc(CN(CCc2ccccc2)C(=O)CN(CCN2CCCCC2)C(=O)c2ccc(Cl)c(Cl)c2)o1 | -3 | 1

Some values from the results shown:
NPYLR7 ag result of Cc1cccc(C)c1OCC(N)C(C)C (stereo not given) → 4
NPYLR7 ag result of COc1ccc2cc(C(=O)C3CCCN(C(=O)/C=C/c4ccccn4)C3)ccc2c1 (stereo not given) → 3

Further records
SMILES | NPYLR7 ag | NPYLR7 ag max-min
CNS(=O)(=O)c1cccc(C(=O)N2CCN(C/C=C/c3ccccc3)CC2)c1 | -5 | -4
COc1ccc(/C=C2\SC(=S)N(NC(=O)c3ccc(C)cc3)C2=O)cc1 | -5 | -10
CCc1nnc(NS(=O)(=O)c2ccc(N=Cc3c(C)[nH]n(-c4ccc(C)cc4)c3=O)cc2)s1 | -11 | -19
COC(=O)CSc1nnc(C(C)C)c2cnn(-c3ccccc3OC)c12 | -12 | -15
COc1cc(/C=C/CN2CCN(Cc3ccsc3)C(CCO)C2)ccc1O (stereo not given) | 2 | 1
Cc1cccc(S(=O)(=O)N2CCN(CC(=O)c3ccc[nH]3)CC2)c1 | -1 | -2
CN(Cc1ccccc1)C(=O)NCc1ccnn1C | 8 | 4
CCOc1ccc(-c2cccc3cnccc23)cc1CNC | 3 | 3
CC(O)C1CCCCN1Cc1nnc2n(C)c(=O)c3ccccc3n12 (stereo not given) | -6 | -5
Cc1ccc2[nH]c(=O)nc(-c3ccccc3)c2c1 | -4&-2 | -13&-2
COc1ccc(NC(=O)CSc2nc(=O)n3cc(C)ccc3n2)cc1 | 2 | 3
CC(=O)Nc1nonc1NC(=O)CSC1=NCCS1 | 1 | -2
Cc1ccc(NC(=O)c2sc(=O)n(Cc3ccc(C(F)(F)F)o3)c2C)cc1 | 3 | -1
Cc1nc(C(=O)N2CCN(C(=O)C3CC3)CC2)nn1-c1ccc(Cl)cc1 | 2 | 1
Cc1ccc(S(=O)(=O)N(C)c2c(C)ccc(S(=O)(=O)N3CCCC3)c2C)cc1 | 6 | 1
CCc1ccc(-c2nn(CC)c(=O)c3c2CCCC3)cc1S(=O)(=O)N1CCCC1 | 2 | 18
CN(CCCc1cnn(C)c1)C(=O)c1cccc(CC2CCNCC2)c1 | 2 | 2
Clc1cc(C2CC(c3cccs3)=Nc3ccccc3S2)cc2c1OCO2 (stereo not given) | 7 | 1
COc1ccc(OC)c(-c2csc(NC(=O)CN3C(=O)COc4ccccc43)n2)c1 | 0 | -1
Cc1nn(C2CCS(=O)(=O)C2)c(C)c1N1CCN(S(=O)(=O)c2cccnc2)CC1 (stereo not given) | 8 | 7
CC(=O)c1ccc2c(c1)N(Cc1cccc(C(=O)N3CCN(C(C)=O)CC3)c1)C(=O)CO2 | 12 | 9
Cc1cccc(NC(=O)Nc2ccc(N3CCCC3)c(C(=O)NCc3ccccc3)c2)c1C | 7 | 9
COc1ccc(N2CCn3c2nnc(C(=O)NCCCO)c3=O)cc1 | 18 | 14
O=S(=O)(NC1CCCCC1Sc1ccc(F)cc1)c1ccccc1 (stereo not given) | 4 | 3
Cc1ccc(-n2nnnc2CNS(=O)(=O)c2ccccc2C(F)(F)F)cc1C | 5 | 3

Carrying on.
SMILES | NPYLR7 ag | NPYLR7 ag max-min
Nc1ccc2nc(SCC(=O)NCCOc3ccc(Cl)cc3)sc2c1 | -5 | -11
CC1(C)OC2COC3(COS(=O)(=O)N4CCN(c5ccccc5)CC4)OC(C)(C)OC3C2O1 (stereo not given) | -4 | -9
Cc1nc2sccn2c(=O)c1NC(=O)c1ccc(C(C)(C)C)cc1 | 0 | -11
O=C1C2C(c3ccc(Cl)cc3Cl)OC3(C(=O)c4ccccc4C3=O)C2C(=O)N1C1CCCC1 (stereo not given) | 0 | -4
C=CCN(CC(=O)N1CCc2sccc2C1c1ccc(OC)cc1)C(=O)c1ccc(CCCC)cc1 (stereo not given) | -5 | 0
NC(Cc1cc(I)c(Oc2ccc(O)c(I)c2)c(I)c1)C(=O)O (stereo not given) | -10 | -13
CSc1ccc(/C=N\NC(=O)CSc2nc3ccccc3[nH]2)cc1 | 12 | 10
CC(=NNc1nc2ccccc2[nH]1)c1ccc[nH]1 | 5 | 8
CC(C)N(CC(=O)N(Cc1ccc(F)cc1)Cc1ccco1)C(=O)C(c1ccccc1)c1ccccc1 | 11 | 17
COCCn1c(SC(C)C(=O)OC)nc2c1c(=O)[nH]c(=O)n2C (stereo not given) | 8 | 7
Cn1cccc1C(=O)NC(=O)CN1CCCN(S(=O)(=O)c2ccc(F)cc2)CC1 | 24 | 11
CN(C)C(=O)OCc1cccc(OCc2ccccn2)c1 | 10 | 4
COc1ccc(NC(=O)N(CC(=O)N(CCc2c[nH]c3ccccc23)Cc2ccc(C(F)(F)F)cc2)C2CC2)cc1 | 8 | 14
Cc1c(C(N)=O)cc([N+](=O)[O-])cc1[N+](=O)[O-] | -7&-1 | -13&-5
Cc1c(C)n2c3c(=O)n(C)c(=O)n(C)c3nc2n1CCN1CCc2ccccc2C1 | 4 | -2
Nc1ccc(Cl)cc1C(=O)Nc1ccncc1 | 1 | 3
COc1cc(C(=O)NC(C(N)=O)c2ccccc2)ccc1OCCC(C)C (stereo not given) | 7 | 7
COc1ccc(C(=O)NC2CCC(NC(=O)[C@H]3CCCN3C(=O)c3cc(C(F)(F)F)cc(C(F)(F)F)c3)CC2)cc1 (stereo not given in full) | 34 | 35
O=C(Nc1ccc(F)cc1)C(C1CCCC1)N1CCN(C(=O)C2CCC2)CC1 (stereo not given) | -6 | -8
CC1(C)Cc2c(sc3[nH]c(=O)n4ncnc4c23)CO1 | 5 | -1
CN(Cc1ccccc1Cl)C(=O)CCn1cnc2sc3c(c2c1=O)CCCC3 | 2 | 1

Compounds shown so far with a CF3 group, in the order listed:
SMILES | NPYLR7 ag | NPYLR7 ag max-min
O=C(NCCN1CCOCC1)c1nn2c(C(F)(F)F)cc(-c3cccs3)nc2c1Cl | -11 | -17
CCC(C)N(Cc1ccc(OS(=O)(=O)c2cccc(C(F)(F)F)c2)cc1)C(=O)c1ccc(Cl)c(Cl)c1 (stereo not given) | -11 | -14
Cc1ccc(NC(=O)c2sc(=O)n(Cc3ccc(C(F)(F)F)o3)c2C)cc1 | 3 | -1
Cc1ccc(-n2nnnc2CNS(=O)(=O)c2ccccc2C(F)(F)F)cc1C | 5 | 3
COc1ccc(NC(=O)N(CC(=O)N(CCc2c[nH]c3ccccc23)Cc2ccc(C(F)(F)F)cc2)C2CC2)cc1 | 8 | 14
COc1ccc(C(=O)NC2CCC(NC(=O)[C@H]3CCCN3C(=O)c3cc(C(F)(F)F)cc(C(F)(F)F)c3)CC2)cc1 (stereo not given in full) | 34 | 35
